HNF4A DNA FP: change in binding of human HNF4 alpha to DNA; actives 0.3% (n = 360,000); P41235; HNF4a-FITC DNA binding, fluorescence polarization, 1 h; activity change, % at 10 µM; in the data active = activity change above about 30%, passing the limit was not always enough;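 note: controls were the assay level and a saturating level of protein; the project sought stronger binding though the title names inhibitors; some compounds called inactive have numbers as strong as hits; positive values seem to mean higher polarization but the record does not say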
LANA-H2A inh: blocks KSHV LANA binding to histone H2A/H2B; actives 0.6% (n = 320,000); cell-free LANA-H2A/H2B peptide, fluorescence polarization; Q9QR71; AID 2629; inhibition, % (concentration not given with the values); in the data active = inhibition mostly above about 10%, no sharp cut-off; inactive = mostly below about 6.7%;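 note: stock transfer was 7.5 nL into about 10 µL; 0% = median of vehicle wells and 100% = median of positive control wells; one replicate is shown; the record names a cut of 25% in any replicate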
Target sequence (Q9QR71 whole entry, looked up): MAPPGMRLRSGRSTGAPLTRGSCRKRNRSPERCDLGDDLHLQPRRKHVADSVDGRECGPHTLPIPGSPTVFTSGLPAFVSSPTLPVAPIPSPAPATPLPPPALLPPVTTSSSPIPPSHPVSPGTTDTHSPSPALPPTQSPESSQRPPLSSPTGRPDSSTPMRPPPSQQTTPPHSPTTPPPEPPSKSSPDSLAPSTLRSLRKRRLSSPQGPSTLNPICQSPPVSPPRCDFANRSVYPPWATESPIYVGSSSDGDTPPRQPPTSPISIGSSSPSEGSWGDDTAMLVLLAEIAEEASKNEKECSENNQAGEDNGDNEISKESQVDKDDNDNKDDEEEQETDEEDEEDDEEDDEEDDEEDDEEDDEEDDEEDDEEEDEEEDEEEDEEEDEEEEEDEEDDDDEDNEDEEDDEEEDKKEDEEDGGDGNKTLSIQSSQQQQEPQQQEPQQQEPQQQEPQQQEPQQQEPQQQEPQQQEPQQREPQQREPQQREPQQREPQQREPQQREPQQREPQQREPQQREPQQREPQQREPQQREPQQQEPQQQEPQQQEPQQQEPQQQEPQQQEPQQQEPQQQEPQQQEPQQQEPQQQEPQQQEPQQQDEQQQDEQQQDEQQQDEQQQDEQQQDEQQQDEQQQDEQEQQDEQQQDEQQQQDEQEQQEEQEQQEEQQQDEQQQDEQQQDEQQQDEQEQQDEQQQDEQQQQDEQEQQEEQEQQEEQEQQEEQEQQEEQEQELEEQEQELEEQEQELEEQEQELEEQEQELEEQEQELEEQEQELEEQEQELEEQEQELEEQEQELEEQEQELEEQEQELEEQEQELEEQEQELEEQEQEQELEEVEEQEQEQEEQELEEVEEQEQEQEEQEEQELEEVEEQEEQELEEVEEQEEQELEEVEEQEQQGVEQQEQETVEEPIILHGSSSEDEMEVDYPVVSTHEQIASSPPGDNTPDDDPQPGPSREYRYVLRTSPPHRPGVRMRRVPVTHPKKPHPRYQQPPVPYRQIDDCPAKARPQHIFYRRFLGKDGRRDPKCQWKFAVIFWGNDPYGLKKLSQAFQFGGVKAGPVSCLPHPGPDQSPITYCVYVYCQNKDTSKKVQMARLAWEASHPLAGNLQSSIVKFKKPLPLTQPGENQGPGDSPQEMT
Calb FLC: affects C. albicans growth with fluconazole. C. albicans CaCi-2 (fluconazole-resistant clinical isolate) + fluconazole, Alamar Blue growth, 48 h. growth inhibition, % (concentration not given with the values). actives 0.57% (n = 300,000);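 active = most replicates above 75%; inconclusive = exactly half above 75%; inactive = most below 75%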;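 note: all wells also contain fluconazole at 8 µg/ml as a sub-toxic cotreatment; 0% = median of DMSO wells and 100% = median of geldanamycin control wells; wells of about 8 µL received 7.5 nL stock; the first replicate is given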
RanGTP-Impb inh: disruptors of Ran-importin-beta complex formation – biochemical, FRET, CFP-Ran, YFP-importin-beta, homogeneous, primary screen | cell-free CFP-Ran/YFP-importin-beta FRET ratio | inhibition, % (concentration not given with the values) | actives 1.1% (n = 300,000) | AID 2216;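 active = most replicates above 15%; inconclusive = exactly half above 15%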;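 note: 0% = DMSO wells and 100% = Ran loaded with GDP instead of GTP; wells of about 40 µL received 100 nL stock; the first replicate is given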
Vif TR-FRET: HIV-1 Vif–A3G interaction blockers – biochemical, TR-FRET, GST-Vif 1-94, biotin-A3G peptide, dose response retest, primary screen (AID 1117319); TR-FRET GST-Vif / biotin-A3G peptide binding; higher % means a stronger effect; test concentration not given here; strong numbers were not always called active; inhibition, %; hits with a dose series show IC50 in µM; actives 0.57% (n = 260,000);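 active = above the screen mean plus three standard deviations and confirmed in dose response; inconclusive = results disagree or hit not tested in dose response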;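 note: Vif residues 1-94 fused to GST binding biotinylated APOBEC3G peptide 110-148; 0% = full assay without inhibitor and 100% = GST in place of GST-Vif; retest series ran down from 100 µM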
B2AR ag: activates human beta-2 adrenergic receptor causing internalization; response, % (concentration not given with the values); P07550; actives 0.43% (n = 340,000); Am2.2-beta2AR cells, FAP receptor internalization, flow cytometry; reference of the scale not given here;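 active = response above a set limit, near 3 SD of response in nonfluorescent compounds, cut at about 42% in these data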;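 note: stock transfer was 100 nL into about 11 µL; a reference agonist was the positive control; negative values mostly stem from fluorescent compounds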
ALR inh: blocks human ALR sulfhydryl oxidase activity. P55789. purified ALR, DTT oxidation, H2O2 HRP-luminol luminescence. inhibition, % (no concentration beside the values). actives 3.8% (n = 290,000). AID 485317;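 active = mean and each replicate at 75% or more; inconclusive = only one of the two met; inactive = neither met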;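 note: stock transfer was 7.5 nL into about 7.5 µL; 0% = neutral wells and 100% = wells with inactivated enzyme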
* marks the source's active call; other numbers are inactive results; ? = inconclusive; / = not tested or not shown. An unsorted share of the library, and some 6.3% of all compounds hit somewhere here.

SMILES	HNF4A DNA FP	LANA-H2A inh	Calb FLC	RanGTP-Impb inh	Vif TR-FRET	B2AR ag	ALR inh
COc1ccc(OC)c(NC(=O)CN(Cc2ccc(Cl)cc2)S(C)(=O)=O)c1	-1.5	0.6	18	4.6	0%	3	-19
COc1ccccc1Nc1ccc(C(=O)NC2CCCCC2)cn1	0.8	5.1	-5	-6.4	-7%	4	-8
O=C(CN1c2ccccc2S(=O)(=O)c2ccccc21)NCc1ccccc1	-0.6	-0.4	-1	6.0	-48%	-1	-9
CCOC(=O)c1c(CN(C)C)n(C)c2ccc(OC(C)=O)cc12	1.7	2.8	0	-2.6	-2%	5	0
C/C(=N\S(=O)(=O)c1ccc(C)cc1)N1CCCCC1	-0.4	1.9	-6	0.0	28%	1	-3
CN(C)c1ccc(C(CNC(=O)c2cccs2)N(C)C)cc1 (centres undefined)	-0.2	1.6	-5	2.3	-6%	-3	68
C/C(=N\Nc1nnc(C)c(=O)[nH]1)C(=O)O	1.1	-7.6	15	0.7	4%	-11	-7
CCC(CC)COC(=O)C1=C(C)NC(=O)NC1c1ccc(N(C)C)cc1 (centres undefined)	5.6	1.7	6	16*	/	12	/
Cc1cccc(OCc2nnc(SCC(=O)Nc3ccc(C)c(C)c3)o2)c1	0.4	-3.9	-13	-3.6	-2%	5	-7
CCCOC(=O)c1ccc(Oc2coc3c(CN(CC)CC)c(O)ccc3c2=O)cc1	-0.5	-1.8	61	-2.7	1%	-2	-5
CCOc1ccc(-n2ccc(=O)c(C(=O)Nc3ccc(S(=O)(=O)N4CCOCC4)cc3)n2)cc1	1.1	4.8	-2	2.0	/	-3	-6
O=C(CSC(=S)N1CCCC1)Nc1ncc(Cl)cc1Cl	1.8	-6.1	5	0.9	6%	-9	-11
COc1cccc(C2NC(=O)CCC2[N+](=O)[O-])c1OC (centres undefined)	-1.2	1.2	-3	-2.3	/	0	/
O=C(O)c1cc(Cl)ccc1-c1ccc(/C=C/c2cc(C(F)(F)F)[nH]c(=O)n2)o1	76	-45	10	-378	/	0	20
COc1ccccc1CCc1nnc(CCC(=O)NC(C)Cc2cccs2)o1 (centres undefined)	0.7	0.0	-11	-1.4	0%	-11	-18
OC(COC(c1ccccc1)c1ccccc1)CN1CCN(c2cccc(Cl)c2)CC1 (centres undefined)	-2.1	-3.1	11	3.1	/	1	/
Cc1ccc(N/C=C/c2onc(C)c2[N+](=O)[O-])cc1	12	-12	0	-6.0	-1%	7	7
COc1ccc(NC(=O)COC(=O)c2c3c(nc4ccccc24)CCCC3)cc1	0.2	-3.8	-3	3.3	2%	15	-5
COc1ccc(NS(=O)(=O)c2ccc(NC(=O)CCNS(=O)(=O)c3ccc(C)cc3)cc2)cc1	4.3	/	1	2.1	-3%	3	/
O=C(NCc1nc2ccccc2[nH]1)c1ccc([N+](=O)[O-])cc1	3.6	-0.1	-7	7.0	-13%	-9	-14

Arranged by SMILES length (smallest number first): 3 of the compounds above
SMILES	HNF4A DNA FP	LANA-H2A inh	Calb FLC	RanGTP-Impb inh	Vif TR-FRET	B2AR ag	ALR inh
CCOC(=O)c1c(CN(C)C)n(C)c2ccc(OC(C)=O)cc12	1.7	2.8	0	-2.6	-2%	5	0
O=C(CN1c2ccccc2S(=O)(=O)c2ccccc21)NCc1ccccc1	-0.6	-0.4	-1	6.0	-48%	-1	-9
O=C(O)c1cc(Cl)ccc1-c1ccc(/C=C/c2cc(C(F)(F)F)[nH]c(=O)n2)o1	76	-45	10	-378	/	0	20

Additional entries follow.
SMILES	HNF4A DNA FP	LANA-H2A inh	Calb FLC	RanGTP-Impb inh	Vif TR-FRET	B2AR ag	ALR inh
COc1ccc(C(CC(=O)O)N2Cc3ccccc3C2=O)cc1 (centres undefined)	2.1	-0.4	-1	0.4	-1%	-2	-6
CN(C)CCN(Cc1ccccc1)S(=O)(=O)c1ccc2c(c1)n(C)c(=O)c(=O)n2C	1.2	0.1	17	2.4	11%	-3	-2
CCN(CCn1cccn1)C(=O)c1cc(COc2ccc(F)cc2Cl)on1	3.3	-4.5	0	0.8	-7%	-4	-1
O=C(COC(=O)c1cc(=O)[nH]c2ccccc12)Nc1cccc(S(=O)(=O)N2CCOCC2)c1	-1.4	5.1	-1	7.2	73%	-6	-2
CC(C)c1ccc(NC(=O)Cc2ccc(NC3=NC4CS(=O)(=O)CC4S3)cc2)cc1 (centres undefined)	-0.3	2.4	3	3.3	/	4	-4
Cc1cccc(C(=O)NCC(=O)OCc2nnc(-c3ccccc3)o2)c1	6.9	-10	2	-0.4	-4%	-3	-7
CCOc1ccc(Nc2oc(-c3cccc(Cl)c3)nc2C#N)cc1	-0.6	-1.9	6	0.6	3%	1	-2
Clc1cccc(Cl)c1COn1nnc2ccccc21	2.2	2.7	-10	-3.0	1%	-1	4
Fc1ccc(C2=NN(c3ccccc3)C(c3ccco3)C2)cc1 (centres undefined)	3.5	2.3	-19	-1.8	/	12	10
COCCCNC(=O)c1sc2ncnc(N3CCc4ccccc4C3)c2c1C	-4.2	-5.5	4	12	12%	-7	-1
CC(=O)N1CCN(c2ccc(NC(=O)c3ccco3)cc2Cl)CC1	0.5	-0.2	6	?	3%	-13	1
COCCn1c(C)cc(C(=O)CSc2cc(C)c3ccc(OC)cc3n2)c1C	0.4	1.6	0	1.6	/	3	-2
CSc1nc(C)cc(SCC(=O)N/N=C/c2ccccc2)n1	1.0	10	-11	-1.2	-14%	-15	1
O=[N+]([O-])c1ccc(N=Nc2ncc[nH]2)cc1	8.7	5.5	-12	-2.1	/	-289	32
Cc1cc(N2CCCC2)ccc1NC(=O)CN1C(=O)NC2(CCCCC2)C1=O	2.3	-5.7	-4	-1.0	1%	1	93*
Cc1ccc(-n2nc3c(=O)n(CC(=O)NC(C)CCc4ccccc4)nc(C)c3c2C)cc1 (centres undefined)	-1.1	0.8	-13	-2.0	/	5	-3
COc1ccc(CN2CCN(Cc3ccc4cc(F)ccc4n3)CC2CCO)c(C)c1C (centres undefined)	-5.7	-0.4	4	1.6	/	9	/
Cc1cc(=O)oc2cc(NC(=O)c3cc([N+](=O)[O-])ccc3N3CCOCC3)ccc12	3.1	-0.1	19	-0.7	14%	-2	2
CCN(CC)S(=O)(=O)c1cc(C(=O)NCCN2CCOCC2)ccc1Cl	1.4	1.7	-3	-1.0	12%	3	2
Cc1ccc(N2C(=O)N(CC(=O)Nc3c(C)cc(C)cc3Cl)C(=O)C2C)cc1 (centres undefined)	0.0	-0.5	-5	1.2	-1%	-3	0
Cc1ccc(CNC(=O)C2CCCN(S(=O)(=O)c3cccnc3)C2)cc1 (centres undefined)	3.0	7.8	-3	-2.3	12%	5	2
Cc1c2ccccc2cc(Cc2ccccc2)[n+]1C	5.5	-9.7	-11	0.9	/	2	7
CCOc1ccc(OCCSc2nnnn2-c2ccccc2)cc1	0.6	-2.6	-1	-0.4	-4%	-7	0
O=C1C2C3CCC(O3)C2C(=O)N1c1cccc(O)c1 (centres undefined)	-1.0	-3.5	-3	33*	/	7	7
CC(C)C(NC(=O)/C=C/c1cccc([N+](=O)[O-])c1)C(C)C	1.9	0.5	-3	?	-1%	-9	-3
O=C(Nc1nc2ccc(F)cc2s1)c1ccc(N2CCCC2=O)cc1	1.5	3.9	-6	1.8	-23%	-2	-3
CCS(=O)(=O)Nc1cc2c3c(c1)CCC(=O)N3CCC2	4.4	-0.1	5	0.7	/	3	/
O=C(Cc1ccc(Cl)cc1)Nc1cc(S(=O)(=O)N2CCOCC2)ccc1N1CCCC1	1.0	-2.4	2	2.2	-4%	-7	-4
Cc1[nH]n(-c2ccccc2)c(=O)c1C1(C(F)(F)F)C(=O)N(c2ccc(F)cc2)C2=C1C(=O)CC(C)(C)C2 (centres undefined)	-2.0	1.4	-2	-4.9	-4%	24	8
CC(=O)c1ccc(NC(=O)NC2CC(=O)N(c3ccc4c(c3)OCCO4)C2)cc1 (centres undefined)	0.6	-4.3	-6	-2.8	0%	3	-8
COc1cc(NC(C)CCCN)c2ncccc2c1Oc1ccccc1 (centres undefined)	6.6	/	-8	2.9	/	14	/
Cc1oc2c(C)c3oc(=O)c(CCC(=O)NCCCn4ccnc4)c(C)c3cc2c1C	5.8	-4.1	-9	5.0	/	1	3
CCOC(=O)Cn1ccc(NC(=O)COc2ccc(F)cc2F)n1	-0.2	-0.7	-3	-6.7	/	2	-5
CCCCNC(=O)CSc1nc(CCC)nc2ccccc12	-1.3	-1.8	-15	-0.3	-2%	-10	-7
Cc1cccc2sc(NC(=O)C3CSC4(C)CCC(=O)N34)nc12 (centres undefined)	-3.1	2.7	-2	?	3%	-7	22
COc1ccc(/C=C/CN2CCN(Cc3cccc(OC)c3)C(CCO)C2)cc1 (centres undefined)	2.3	-3.7	-4	-2.3	/	1	-7
O=C(Nc1ccc(Cl)cc1)N1CCN(c2ncccn2)CC1	3.7	-7.1	-3	1.1	2%	-4	-9
Cc1ccc(Oc2ccc(C(=O)NCc3ccncc3)cc2)cc1	-1.2	/	20	0.9	16%	2	/
C/C(=N/NC(=O)CNC(=O)C(c1ccccc1)c1ccccc1)c1ccco1	-2.5	1.0	-6	-0.4	/	-1	/
CC(C)CN(CCNC(=O)c1cn(C)c2ccc(S(=O)(=O)N3CCCC3)cc2c1=O)CC(C)C	-0.5	4.7	16	-0.4	/	-2	0
Cc1ccc(COC(=O)CN2C(=O)NC3(CCCCC3C)C2=O)cc1 (centres undefined)	0.4	/	/	/	1%	-3	/
CC1Cc2ccccc2N1C(=O)c1nn(C)cc1Br (centres undefined)	2.2	0.6	3	-4.3	-6%	2	-1
O=C(c1ccc(Br)o1)N1CCN=C1SCc1cccc(F)c1	-0.6	-1.5	0	-5.0	-9%	-18	58
C=CCNC(=O)c1ccc(Sc2ccccc2)c([N+](=O)[O-])c1	0.9	-2.6	-1	-2.1	-2%	-13	1
Cc1cccc(Nc2nnc(SCC(=O)NC3CCCc4ccccc43)s2)c1 (centres undefined)	4.5	-5.2	-4	5.1	/	17	-2
Cc1ccc(C(=O)CNc2ccccc2C)cc1	2.1	-0.2	-17	-0.2	2%	3	1
COC(=O)c1sccc1NC(=S)N1CCN(c2ccc(F)cc2)CC1	-0.8	0.1	15	-1.3	-3%	-9	6
CCOC(=O)c1ccc(S(=O)(=O)N2CCN(S(=O)(=O)CC)CC2)cc1	-2.5	-4.7	-2	1.8	?	1	-6
COc1ccc(C(=O)N2CCN=C2SC)cc1OC	2.1	0.5	7	2.9	-4%	4	3
Cc1ccc(S(=O)(=O)N[C@H](C(=O)OCC(=O)N2N=C(c3ccc(Cl)cc3)CC2c2ccco2)C(C)C)cc1 (some centres undefined)	0.2	3.9	14	-3.6	/	-3	/
Cc1cc(C(=O)CSc2nnc(-c3cccc(F)c3)n2N)c(C)n1Cc1ccc2c(c1)OCO2	-0.4	0.2	18	?	-1%	82*	-5
O=S1(=O)C=C(Sc2nnc(-c3ccccc3)o2)c2ccccc21	1.4	2.9	36	-3.0	-2%	-407	78*
CN(Cc1ccccc1)C(=O)Cn1cccc1C(=O)c1ccccc1	2.7	1.8	2	70*	-1%	0	-10
CN(C)/C(=N\S(=O)(=O)c1ccccc1)c1ccc(Cl)cc1	2.7	2.6	12	-3.6	-12%	1	-1
CCC(C)NC(=O)C1CCCN(C(=O)Nc2ccc(F)cc2)C1 (centres undefined)	-2.8	-1.9	-2	-0.7	0%	3	-5
C#CCSc1nnc(-c2sc(-c3ccccc3)nc2C)n1C	-3.8	8.6	12	-4.0	-3%	-18	-3
COCCCNC(=O)C[C@H]1C[C@H](C(=O)N2CCOCC2)[C@@]2(CCC3CCCC3)c3[nH]c4ccc(Cl)cc4c3CCN2C1=O	0.4	/	/	/	3%	8	/

Screening data from PubChem BioAssay.
